Screening results deposited in PubChem BioAssay by National Center for Advancing Translational Sciences (NCATS).
TRPV1 potentiator: potentiators of human vanilloid receptor 1 (TRPV1); Q8NER1; TRPV1-expressing cells, Fluo-8 calcium influx, capsaicin EC20 potentiation; host cell line not named in the record; control for the full effect not named in the record; potentiation, % at 8.33 µM; 320,000 compounds, 0.02% hits; AID 540277; active means potentiation above 80%; inconclusive means 30% to 80%; inactive means below 30%; note: 0% is about no effect
Target sequence (Q8NER1 whole entry, looked up): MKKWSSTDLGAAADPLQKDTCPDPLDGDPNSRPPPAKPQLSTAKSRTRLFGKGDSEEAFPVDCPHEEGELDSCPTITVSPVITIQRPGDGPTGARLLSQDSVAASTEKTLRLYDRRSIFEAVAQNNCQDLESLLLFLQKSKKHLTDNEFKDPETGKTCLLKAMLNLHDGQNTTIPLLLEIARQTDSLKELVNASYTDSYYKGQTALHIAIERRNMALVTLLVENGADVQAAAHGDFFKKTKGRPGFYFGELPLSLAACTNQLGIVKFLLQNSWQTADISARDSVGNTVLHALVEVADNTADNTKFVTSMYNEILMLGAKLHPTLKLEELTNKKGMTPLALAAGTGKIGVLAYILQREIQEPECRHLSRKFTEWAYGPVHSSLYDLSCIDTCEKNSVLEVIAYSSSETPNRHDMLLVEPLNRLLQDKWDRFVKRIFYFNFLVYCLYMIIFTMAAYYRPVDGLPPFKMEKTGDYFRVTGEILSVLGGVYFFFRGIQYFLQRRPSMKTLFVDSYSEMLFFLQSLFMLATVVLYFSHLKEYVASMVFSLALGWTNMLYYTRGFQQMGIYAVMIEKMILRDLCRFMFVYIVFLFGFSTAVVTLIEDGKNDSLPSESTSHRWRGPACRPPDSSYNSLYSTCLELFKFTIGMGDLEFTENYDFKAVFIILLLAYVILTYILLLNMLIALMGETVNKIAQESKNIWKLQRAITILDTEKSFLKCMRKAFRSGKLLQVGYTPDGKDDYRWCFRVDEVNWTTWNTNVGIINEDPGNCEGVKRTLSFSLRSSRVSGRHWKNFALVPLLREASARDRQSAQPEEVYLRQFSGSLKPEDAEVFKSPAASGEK
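Fluo-8 calcium influx in TRPV1-expressing cells, kinetic read (ex 480/em 520 nm). Compound added and read 3 min for agonist activity, followed by capsaicin at EC20 final and 2 min further read for enhancement.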
D2 PAM: positive allosteric modulators of human D2 dopamine receptor | P14416 | DiscoveRx D2 beta-arrestin cells, luminescence, 90 min; 100% = 57 uM dopamine signal | potentiation, % (concentration not given with the values) | 360,000 compounds, 0.23% hits | AID 624464; active = potentiation of 50% or more; inconclusive = 30% to 50%; inactive = 30% or less;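 note: tested on top of an EC20 dose of dopamine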
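D2 cells co-treated with compound plus 50 nM dopamine (EC20) for 90 min at 37 deg C to detect potentiation. Beta-arrestin recruitment was read as enzyme-fragment luminescence after 1 h at ambient temperature. Full response was set by 57 uM dopamine.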
Six1-Eya2 inh: blocks human Six1 binding to Eya2; activity change, % (no concentration beside the values); Q15475+O00167; 360,000 compounds, 0.56% hits; AlphaScreen GST-Six1/His-Eya2 binding, biochemical; active compounds read low; control for the full effect not named in the record; AID 651725; in the data active = activity change below about -65%; inconclusive = about -30% to -65%; inactive = above about -30%; note: % is set by controls: 0 for no effect and ±100 for the full control effect
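Homogeneous AlphaScreen proximity assay pairing GST-Six1 with His-tagged Eya2 (added as 5X mix: 250 nM and 500 nM) in 50 mM Tris pH 8.0, 300 mM NaCl, 1 mM TCEP. Glutathione donor and nickel acceptor beads; 1 h, 37 °C, dark.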
PINK1 modulator: modulators of PINK1 expression; PINK1 immunofluorescence, high-content cytometry, 24 h; Potency, µM (doses to about 76.6 µM), inactives show top-dose activation (PINK1 increase), hits mostly activators; 410,000 compounds, 0.2% hits; AID 624263; active = well fitted activation curve with a large enough effect; inconclusive = small, poorly fitted or top-dose-only effect; inactive = flat fitted curve, though single readings scatter; cell line not stated here;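 note: potency is the fitted concentration of half-maximal effect; % of control where 0% means no effect; nearly all actives have a fitted effect of over 65% in size; a mitochondrial uncoupler was the plate control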
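Cells are seeded, rested 12 hours, then given compound at five concentrations or DMSO for 24 hours. After fixation, blocking and antibody staining, PINK1 amount and mitochondrial localization are scored; CCCP serves as control.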
Sfp inh: inhibitors of Bacillus subtilis Sfp phosphopantetheinyl transferase. Q9F4F7. Biochemical Sfp PPTase activity, qHTS. Potency, µM, for the others: max response, negative = inhibition, most hits filed as inhibitors. 310,000 compounds, 3.5% hits. AID 1490; active = well fitted inhibition curve with a large enough effect; inconclusive = small, poorly fitted or top-dose-only effect, or another doubt; inactive = no such curve, though single readings can be large or run the other way;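 note: the enzyme is Sfp with the accession as filed and its product quenches rhodamine fluorescence; potency is the fitted concentration of half-maximal effect; 0% = enzyme reaction without inhibitor and -100% = no enzyme wells; top concentration of the series not given in the record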
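Buffer: 50 mM Hepes-Na pH 7.6, 10 mM MgCl2, 0.01% Nonidet P-40, 0.01% BSA. Enzyme 15 nM, pre-exposed to compound 15 min; substrates then added and fluorescence change tracked over 30 min.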
CtBP-E1A inh: CtBP/E1A binding inhibition. AlphaScreen GST-E1A/His-CtBP binding, 1536-well; active compounds read low; control for the full effect not named in the record. activity change, % (test concentration not listed). 340,000 compounds, 0.49% hits; in the data active means activity change below about -65%; inconclusive means about -30% to -65%; inactive means above about -30%; note: % is set by controls: 0 for no effect and ±100 for the full control effect
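In 5 uL wells, 23 nL compound meets equimolar GST-E1A and His-CtBP (5X stock 125 nM each) for 2 h, 37 °C. Beads (5X, 50 ug/mL) then 1 h, 37 °C, dark.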
D2 agonist: human D2 receptor agonism in beta-arrestin assay. activation, % (no concentration beside the values). P14416. AID 624465. 360,000 compounds, 0.084% hits. DiscoveRx PathHunter D2 beta-arrestin, luminescence, 90 min; 100% = 57 uM dopamine signal; in the data active = activation above about 40%; inconclusive = about 15% to 40%; inactive = below about 15%; note: compound concentration not given in the record; the text of the record calls up to 30% inactive
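DiscoveRx PathHunter D2 beta-arrestin cells (2,100/well) attached overnight, then compound-stimulated 90 min at 37 C in HBSS/10 mM HEPES/0.1% Tween-20 buffer; beta-galactosidase complementation read by luminescence after 1 h at ambient temperature. Dopamine 57 uM final (EC100) as control.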
Starred values were filed as active, the others as inactive; u = inconclusive; x = not tested or not shown; & = joins results of further samples; [ ] = another dose, or the depositor's remark. This is a random part of the collection (roughly 3.7% active in at least one column).

#	Compound	TRPV1 potentiator	D2 PAM	Six1-Eya2 inh	PINK1 modulator
1	CN(Cc1cccnc1)Cc1c(C(=O)N2CCc3ccccc3C2)nc2ccc(Cl)cn12	-6.6	-2.5	-3.2	2.3%
2	CC(C)(C)c1c(Cl)c(O)c(-c2ccccc2)c(=O)n1-c1ccccc1	u	5.4	-23.6	-3.4%
3	CC(C)CNC(=O)C1(C)CCCCCN1C(=O)c1cc2ccccc2s1 (stereo not given)	x	-11.1	23.6	-0.4%
4	Cc1ccc(CNC(=O)CN2C(=O)CSc3ccc(S(=O)(=O)N4CCC(C)CC4)cc32)cc1	-8.5	-1.5	-4.0	0.3%
5	O=C(COc1ccc(-c2nnco2)cc1)NCc1ccccc1Cl	-5.8	-3.4	1.5	9.5%
6	O=C(c1ccccc1)N1CCC(O)(c2cccnc2)CC1	-4.8	3.6	2.7	0.4%
7	O=C(Oc1cc(=O)oc2c1c(=O)n1c3c(cccc23)CC1)c1ccccc1	7.4	-3.1	-19.2	-0.6%
8	N=c1sccn1CC(=O)NCc1ccc(Cl)cc1Cl	-5.4	-9.4	3.7	2.0%

#	Sfp inh	CtBP-E1A inh	D2 agonist
1	-5.3%	-9.1	-2.6
2	-6.3%	0.0	-6.6
3	x	0.0	-2.7
4	13.1%	-1.8	4.5
5	12.3%	-5.2	-5.4
6	4.0%	x	-0.5
7	-16.2%	-5.5	-2.1
8	-13.6%	5.8	-1.4

(continued)
#	Compound	TRPV1 potentiator	D2 PAM	Six1-Eya2 inh	PINK1 modulator
9	Cc1cccc(-c2cc(C(=O)Nc3cccnc3)c3ccccc3n2)c1	-13.4	-24.9	14.4	4.1%
10	NC(=O)CSc1nnc(NC(=O)c2ccc(Br)o2)s1	8.9	-2.0	-3.4	-1.9%
11	CC(C)C(NC(=O)c1ccccc1)C(=O)N1CCCCCC1 (stereo not given)	0.2	0.4	5.1	-0.8%
12	Cc1cccc(NC(=O)c2ccc3c(c2)OCCO3)c1	-7.9	-1.3	9.7	-1.1%
13	CCOC(=O)c1sc2nc(C)nc(Nc3ccc(OC)cc3)c2c1C	-19.0	-6.3	2.0	u
14	COc1cc(OC)cc(C2=Cc3ccccc3C(CC(=O)c3ccco3)N2c2ccc(-c3cnc(OC)nc3)cc2)c1 (stereo not given)	x	x	-10.7	0.3%
15	O=C(O)c1cccc(-n2cc(-c3cccc(C(F)(F)F)c3)cn2)c1	9.5	-3.1	-5.2	2.5%
16	Cc1cc(C(=O)COC(=O)c2ccc(O)cc2)c(C)n1-c1ccccc1F	-11.7	1.6	-2.9	-0.5%

#	Sfp inh	CtBP-E1A inh	D2 agonist
9	-10.7%	0.0	2.4
10	4.6%	x	-6.6
11	4.0%	-4.5	-1.1
12	5.0%	6.7	-1.9
13	-2.3%	8.2	-8.1
14	x	0.9	x
15	24.3%	x	-1.6
16	-11.0%	2.9	4.8

Going on with the list.
#	Compound	TRPV1 potentiator	D2 PAM	Six1-Eya2 inh	PINK1 modulator
17	Cc1ccc2sc(N(CCCN(C)C)C(=O)CCS(=O)(=O)c3ccccc3)nc2c1C	-25.8	-46.7	4.0	-1.8%
18	CCCCn1c(=N)c(S(=O)(=O)c2ccc(Br)cc2)cc2c(=O)n3cccc(C)c3nc21	-18.8	1.8	1.4	0.8%
19	COc1ccc(Cl)cc1C(=O)Nc1cc(=O)n(C)c(=O)n1C	-16.5	-5.1	5.4	1.5%
20	CN(C(=O)Cc1csc(-c2ccccc2)n1)c1c(N)n(Cc2ccccc2)c(=O)[nH]c1=O	6.0	-1.1	1.4	-2.6%
21	O=C(Nc1cccc(Br)c1)c1ccc2snnc2c1	-12.1	-19.2	2.8	3.0%
22	Cc1c(C)c2c(OCC(=O)N3CCC(C(N)=O)CC3)cc3c(c2oc1=O)CCC(C)(C)O3	5.2	-17.6	-4.9	-0.5%
23	CCN1CCN(c2ccc(S(=O)(=O)N3CCCCC3)cc2NC(=O)COc2ccccc2)CC1	-7.0	-29.7	-5.7	-1.0%
24	C/C(=N\NC(=O)c1ccccc1O)c1cccs1	1.7	-4.1	6.5	1.0%

#	Sfp inh	CtBP-E1A inh	D2 agonist
17	u	2.2	1.9
18	0.5%	3.8	2.2
19	8.6%	-2.7	-3.7
20	x	4.7	-1.6
21	15.2%	6.5	0.7
22	14.4%	u	-6.2
23	x	-1.0	-7.2
24	9.1%	1.4	-4.6

Laid out differently: 4 of the compounds above.
(3) CC(C)CNC(=O)C1(C)CCCCCN1C(=O)c1cc2ccccc2s1 (stereo not given)
- TRPV1 potentiator = x
- D2 PAM = -11.1
- Six1-Eya2 inh = 23.6
- PINK1 modulator = -0.4%
- Sfp inh = x
- CtBP-E1A inh = 0.0
- D2 agonist = -2.7
(17) Cc1ccc2sc(N(CCCN(C)C)C(=O)CCS(=O)(=O)c3ccccc3)nc2c1C
- TRPV1 potentiator = -25.8
- D2 PAM = -46.7
- Six1-Eya2 inh = 4.0
- PINK1 modulator = -1.8%
- Sfp inh = u
- CtBP-E1A inh = 2.2
- D2 agonist = 1.9
(24) C/C(=N\NC(=O)c1ccccc1O)c1cccs1
- TRPV1 potentiator = 1.7
- D2 PAM = -4.1
- Six1-Eya2 inh = 6.5
- PINK1 modulator = 1.0%
- Sfp inh = 9.1%
- CtBP-E1A inh = 1.4
- D2 agonist = -4.6
(19) COc1ccc(Cl)cc1C(=O)Nc1cc(=O)n(C)c(=O)n1C
- TRPV1 potentiator = -16.5
- D2 PAM = -5.1
- Six1-Eya2 inh = 5.4
- PINK1 modulator = 1.5%
- Sfp inh = 8.6%
- CtBP-E1A inh = -2.7
- D2 agonist = -3.7

Additional records follow.
#	Compound	TRPV1 potentiator	D2 PAM	Six1-Eya2 inh	PINK1 modulator
25	CCOC(=O)c1c(C)[nH]c(C)c1C(=O)COC(=O)CNC(=O)C1CCCCC1	3.4	-1.3	-1.0	0.5%
26	CS(=O)(=O)c1cccc(C(=O)Nc2ccc(S(=O)(=O)N3CCCCC3)cc2)c1	-8.1	-8.2	-1.9	0.8%
27	CC(C)(C)[C@H]1COC(=O)[C@H](NC(=O)OCC2c3ccccc3-c3ccccc32)C/C=C\C[C@@H](CC(=O)N[C@@H](CO)Cc2ccccc2)C(=O)N1	x	-7.1	2.4	1.7%
28	COc1ccccc1Nc1nccc(N(C)C)c1C#N	-1.9	-5.8	-0.6	1.1%
29	COc1ccc2c(c1)CCc1c(C(=O)Nc3cc(C)n(Cc4ccc(Cl)cc4)n3)noc1-2	3.5	-0.5	8.9	7.3%
30	Cc1nc2scc(-c3ccc(C(C)C)cc3)c2c(=O)n1N	-11.4	-4.3	-5.5	0.0%
31	COc1ccc(-c2nnn(CC(=O)N(CC(=O)NC3CCCC3)Cc3cccs3)n2)cc1OC	1.5	-5.8	-0.2	1.6%[38.3 µM]
32	CCOC(=O)C1=CCN(S(=O)(=O)c2ccccc2)C1c1ccc(C)cc1 (stereo not given)	x	2.9	8.1	3.7%

#	Sfp inh	CtBP-E1A inh	D2 agonist
25	-28.6%	-16.4	-12.4
26	x	-2.6	-2.4
27	x	9.5	1.3
28	5.8%	-0.3	-3.3
29	27.5%	-0.5	-1.3
30	10.9%	-2.4	4.7
31	3.4%	2.7	-3.9
32	x	-8.8	-3.2

Next results follow.
#	Compound	TRPV1 potentiator	D2 PAM	Six1-Eya2 inh	PINK1 modulator
33	CCCCNC(=O)C1CCN(C/C(C)=C/c2ccccc2)CC1	-9.3	-25.2	3.9	-2.2%
34	O=C(NC(=S)Nc1ccccc1N1CCCCC1)c1cccs1	0.4	0.2	-24.3	20.2%
35	CCCCn1c(N)c(N(Cc2ccccc2OC)C(=O)CN2C(=O)NC3(CCCC3)C2=O)c(=O)[nH]c1=O	-4.3	-17.7	0.4	-1.1%
36	Cc1cc(C)c(NC(=O)Cn2c(=O)n(Cc3ccco3)c(=O)c3ccccc32)c(C)c1	u	-2.8	7.6	-0.6%
37	COc1ccc(C(C)=O)cc1Cn1nnc(-c2ccccc2Br)n1	-2.7	-18.7	-0.5	0.7%
38	COc1cc(C(=O)N2c3ccccc3CC2C)cc(OC)c1OC (stereo not given)	-0.8	1.5	16.1	6.7%
39	COc1ccc(C(O)Cn2cc([N+](=O)[O-])nc2C)cc1 (stereo not given)	-4.5	-8.6	4.9	-0.1%
40	O=C(Cn1ccc([N+](=O)[O-])n1)Nc1nc2ccccc2s1	9.3	-8.5	-4.3	-1.7%

#	Sfp inh	CtBP-E1A inh	D2 agonist
33	-15.6%	0.3	-2.1
34	25.5%	-3.3	-1.7
35	x	2.8	-3.5
36	2.3%	-3.2	-1.7
37	8.1%	-14.7	-1.1
38	4.2%	0.0	-2.7
39	0.0%	-5.8	3.4
40	13.8%	-0.5	-0.3

Following part:
#	Compound	TRPV1 potentiator	D2 PAM	Six1-Eya2 inh	PINK1 modulator
41	COc1ccccc1NC(=S)NC1CCCCC1	-17.3	-23.4	0.8	-0.2%
42	O=C(COc1ccccc1Br)c1ccc2c(c1)OCO2	-14.7	-12.3	2.7	2.4%
43	CC[C@]12c3[nH]c4ccc(Cl)cc4c3CCN1C(=O)[C@@H](CC(=O)NCCCOC)C[C@@H]2C(=O)N1CCN(C(=O)C2CC2)CC1	x	-9.2	1.4	-1.0%
44	CN(C(=O)CSc1cn(CC(=O)N2CCOCC2)c2ccccc12)c1ccccc1	-2.5	2.2	2.8	-0.5%&1.1%
45	CC(=O)c1ccc(NC(=O)c2cc(Cl)nc3ccccc23)cc1	8.6	-2.3	1.7	9.3%
46	COc1ccc(NC(=O)C2(C)Cc3c(-c4ccc5c(c4)OCO5)ccnc3O2)cn1 (stereo not given)	x	-16.6	-6.4	1.3%
47	Fc1cc(F)cc(NC(=S)N2CCC(c3ccccc3)C2)c1 (stereo not given)	0.8	-8.7	3.0	-0.3%
48	CCOc1ccc(CCNC(=O)c2ccc(N3CCCC3=O)cc2)cc1OCC	28.8	11.5	2.7	-2.0%
49	Oc1[nH]c2ccccc2c1C1=NCCCC1	-6.8	-10.5	-8.0	-0.8%
50	Cc1c(NC(=O)COC(=O)c2cc(-c3ccc(-c4ccccc4)cc3)nc3ccccc23)c(=O)n(-c2ccccc2)n1C	6.0	19.0	-5.2	1.5%

#	Sfp inh	CtBP-E1A inh	D2 agonist
41	-20.0%	-9.1	-3.0
42	x	14.6	-1.9
43	x	-0.5	-2.0
44	2.1%	1.6	3.7
45	15.8%	-1.9	-0.4
46	x	-12.9	-3.5
47	10.8%	0.8	-4.6
48	8.5%	2.9	0.2
49	15.0%	-2.0	0.3
50	50.1µM*	2.7	0.0
